BJeLR viability: kills HRASV12-expressing BJeLR cells; BJeLR (HRASV12) viability, CellTiter-Glo ATP luminescence, 48 h; reference of the scale not given here; 300,000 tested, 0.17% active; inhibition, % (test concentration not listed);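 active = replicate mean above 50%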;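 also: 50 nL library stock added to about 25 µL; numbers are from one replicate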
Mtb hypoxia rep: inhibitors of hypoxia-regulated fluorescent reporter in Mycobacterium tuberculosis; M. tuberculosis hypoxia-regulated fluorescent reporter, fluorescence; fluorescence inhibition, % (test concentration not listed); 300,000 tested, 0.1% active; AID 1159583;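 active = 35 to 45% if threefold the growth effect, above 45% if 1.5-fold the growth effect; inactive = the rest, general growth blockers included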;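 also: wells of about 50 µL received 100 nL stock; 0% = vehicle wells and 100% = reference inhibitor wells; whole bacteria with a GFP reporter of the hypoxia response; strong numbers were not always called active; many hits fall short of the cut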
ugtP null kill: kills S. aureus RN4220 lacking UgtP; S. aureus RN4220 ugtP deletion, OD600 growth, 16 h; some inactives read as strong as hits; growth inhibition, % (no concentration beside the values); 330,000 tested, 0.54% active; AID 1259309;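 active = z-score under -3 and OD600 up to 0.15 on both plates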;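 also: plate controls were untreated wells for no effect and antibiotic for full effect; wells of about 80 µL received 100 nL stock; the first replicate is given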
PrP UTR inh: inhibition of PrP 5' UTR reporter expression | cell-based PrP 5' UTR mRNA reporter, plate reader | inhibition, % (concentration not given with the values) | 340,000 tested, 0.35% active | AID 488862;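 active = every replicate at 50% or more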;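 also: 0 = median of the neutral control wells; tested in H4 reporter cells; numbers are from one replicate; inactives centre near -14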
Sa RN4220 lethal: S. aureus RN4220 growth inhibition | inhibition, % (concentration not given with the values) | OD600, 16 h | AID 1259311 | 330,000 tested, 0.33% active;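 active = z-score of -3 or lower and OD600 up to 0.18 on both plates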;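 also: plate controls were untreated cells for no effect and reference antibiotic for full effect; stock transfer was 100 nL into about 80 µL; one replicate is shown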
Bead autofluor: compound fluorescence in toxin protease inhibitor counterscreen | compound autofluorescence counterscreen, microsphere flow cytometry; stronger effect = higher value | fluorescence intensity (test concentration not listed) | 360,000 tested, 3.1% active;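 active = at least 3 SD above the mean of all compounds, about 16000 in these data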;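 also: 100 nL of 1 mM stock went into each well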
Mtb hypoxia rep growth: also measured in Mtb hypoxia rep; calls as there; growth inhibition, %; measured here: M. tuberculosis growth (absorbance);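 0% = vehicle and 100% = reference antibiotic; read after six days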
The depositor's hits bear a star; · = no result given.

SMILES	BJeLR viability	Mtb hypoxia rep	Mtb hypoxia rep growth	ugtP null kill	PrP UTR inh	Sa RN4220 lethal	Bead autofluor
CC(=O)Nc1sc(N/N=C\c2cccc(Cl)c2)nc1-c1cccs1	-5	·	·	·	-42	·	2439
COc1ccc2nc(C)c(C(N)=O)cc2c1	-8	10	8	8	4	8.0	4079
COc1ccc(OC)c(C=NNC(=O)CN2CCSCC2)c1	·	-1	-5	0	·	-1.0	·
COC(=O)[C@]1(Cc2ccccc2)N[C@H](c2ccc(-c3ccc4c(c3)OCO4)cc2)[C@@H]2C(=O)N(C)C(=O)[C@@H]21	12	·	·	·	1	·	2961
O=[N+]([O-])c1ccc(NS(=O)(=O)N2CCOCC2)cc1	·	-5	-4	7	-12	4.9	4697
COCCCNc1ncnc2c1sc1nc(-c3ccco3)c3c(c12)CC(C)(C)OC3	3	-3	11	-13	-70	8.4	5285
CCOC(=O)c1ccc(NC(=O)CN2C(=O)CSC(C)C2=O)cc1 (stereo unspecified)	-1	6	17	-3	-23	1.6	2592
C(=C\c1nc(-c2ccccc2)no1)/c1ccccc1	-4	·	·	·	-92	·	2114
C/C(Cl)=C/CSc1nc2c(c(=O)[nH]c(=O)n2C)n1C(C)C	-5	·	·	4	-9	0.6	4821
COCCN(C(=O)Cn1nnc2ccccc21)C(C(=O)NC1CCCC1)c1ccc(OC)cc1OC (stereo unspecified)	-7	1	12	-2	-6	-3.0	3182
O=C(C[n+]1cc(-c2ccccc2)n2c1CCC2)N1c2ccccc2Sc2ccccc21	5	0	19	-7	0	19	2573
CN(CCCCCC(=O)C=NO)Cc1ccccc1	·	-3	9	-5	·	16	·
Oc1ccc(C2C[C@H]3CC[C@@H]2C3)cc1O (stereo partly specified)	10	16	8	-10	-16	0.5	3246
COC(=O)[C@]1(Cc2ccccc2)NC(c2ccc(-c3cccc(Cl)c3)c(OC)c2)C2C(=O)N(C)C(=O)C21 (stereo partly specified)	·	2	9	3	·	3.4	·
COc1ccc(/C=N\NC(=O)C2CCCC2)cc1Br	-9	·	·	·	-33	·	5630
CCOc1ccc(C2C(C(=O)c3cccs3)=C(O)C(=O)N2CCN2CCOCC2)cc1 (stereo unspecified)	-4	11	1	8	-8	6.9	3485
O=C(C1Cc2ccccc2CN1S(=O)(=O)c1cccs1)N1CCCCC1 (stereo unspecified)	-1	3	7	1	-27	2.0	25075*
COc1ccc(CNC(=O)C2=CC(c3ccc(OC)cc3)=NS(=O)(=O)N2C)cc1	5	2	-4	-2	-10	5.3	6085
CC1=CC2/C=C(\C)CCC(O)C(O)/C=C/C(=O)C23C(=O)NC(CC(C)C)C3C1C (stereo unspecified)	44	·	·	·	-5	·	5589
O=C1COc2ccc(C(=O)CSc3nnc(-c4cccs4)n3Cc3ccccc3)cc2N1	-5	·	·	3	-5	1.1	4945
COC(=O)c1cc2c(C)c(C)c3ccccn3c-2c1C(=O)OC	5	6	7	2	-21	10	3468
COc1ccc(/C=C2\SC(=O)N(CC(=O)NNC(=O)c3ccccc3O)C2=O)cc1OC	1	·	·	·	-18	·	2197
O=C(c1ccccc1)c1c[nH]c(C(=O)NNc2ccccc2)c1	-7	12	15	-4	-34	-2.4	3426
O=C(O)C(CCCCN1C(=O)C2C3C=CC(C3)C2C1=O)N1C(=O)C2C3C=CC(C3)C2C1=O (stereo unspecified)	1	·	·	6	-11	0.0	2727
COc1ccc(-c2cc(-c3n[nH]c(=S)n3-c3ccccc3OC)[nH]n2)cc1	1	·	·	·	7	·	2632

Six entries picked at random from the list so far, as already listed:
SMILES	BJeLR viability	Mtb hypoxia rep	Mtb hypoxia rep growth	ugtP null kill	PrP UTR inh	Sa RN4220 lethal	Bead autofluor
O=C(C[n+]1cc(-c2ccccc2)n2c1CCC2)N1c2ccccc2Sc2ccccc21	5	0	19	-7	0	19	2573
COc1ccc(OC)c(C=NNC(=O)CN2CCSCC2)c1	·	-1	-5	0	·	-1.0	·
COc1ccc(-c2cc(-c3n[nH]c(=S)n3-c3ccccc3OC)[nH]n2)cc1	1	·	·	·	7	·	2632
COCCCNc1ncnc2c1sc1nc(-c3ccco3)c3c(c12)CC(C)(C)OC3	3	-3	11	-13	-70	8.4	5285
CCOC(=O)c1ccc(NC(=O)CN2C(=O)CSC(C)C2=O)cc1 (stereo unspecified)	-1	6	17	-3	-23	1.6	2592
Oc1ccc(C2C[C@H]3CC[C@@H]2C3)cc1O (stereo partly specified)	10	16	8	-10	-16	0.5	3246

Three entries already listed, arranged by heavy-atom count, falling:
SMILES	BJeLR viability	Mtb hypoxia rep	Mtb hypoxia rep growth	ugtP null kill	PrP UTR inh	Sa RN4220 lethal	Bead autofluor
C/C(Cl)=C/CSc1nc2c(c(=O)[nH]c(=O)n2C)n1C(C)C	-5	·	·	4	-9	0.6	4821
O=[N+]([O-])c1ccc(NS(=O)(=O)N2CCOCC2)cc1	·	-5	-4	7	-12	4.9	4697
COc1ccc2nc(C)c(C(N)=O)cc2c1	-8	10	8	8	4	8.0	4079

Reformatted with values under each structure: six of the compounds above
Sequence of screens: BJeLR viability, Mtb hypoxia rep, Mtb hypoxia rep growth, ugtP null kill, PrP UTR inh, Sa RN4220 lethal, Bead autofluor
COc1ccc(OC)c(C=NNC(=O)CN2CCSCC2)c1
 : ·, -1, -5, 0, ·, -1.0, ·
COC(=O)[C@]1(Cc2ccccc2)NC(c2ccc(-c3cccc(Cl)c3)c(OC)c2)C2C(=O)N(C)C(=O)C21 (stereo partly specified)
 : ·, 2, 9, 3, ·, 3.4, ·
CCOc1ccc(C2C(C(=O)c3cccs3)=C(O)C(=O)N2CCN2CCOCC2)cc1 (stereo unspecified)
 : -4, 11, 1, 8, -8, 6.9, 3485
O=C(c1ccccc1)c1c[nH]c(C(=O)NNc2ccccc2)c1
 : -7, 12, 15, -4, -34, -2.4, 3426
C/C(Cl)=C/CSc1nc2c(c(=O)[nH]c(=O)n2C)n1C(C)C
 : -5, ·, ·, 4, -9, 0.6, 4821
COc1ccc2nc(C)c(C(N)=O)cc2c1
 : -8, 10, 8, 8, 4, 8.0, 4079

Additional structures follow.
SMILES	BJeLR viability	Mtb hypoxia rep	Mtb hypoxia rep growth	ugtP null kill	PrP UTR inh	Sa RN4220 lethal	Bead autofluor
COc1ccc(C(=O)NC2CCN(CC(=O)Nc3cccc(C)c3)CC2)cc1OC	0	13	7	4	-24	5.3	3218
O=C(O)C(Cc1ccccc1N(CCO)CCO)N1C(=O)c2ccccc2C1=O (stereo unspecified)	·	5	9	3	-16	4.6	3704
O=C(CCc1ccc(S(=O)(=O)NC2CCCCC2)cc1)NCc1cccnc1	4	4	-1	6	4	5.5	4113
Cc1ccc(NC(=O)CCC(=O)NN=Cc2ccccc2O)cc1	·	-8	4	-2	·	-2.4	·
Cc1ccc(CN(Cc2cccnc2)C(=S)Nc2cc(Cl)ccc2C)cc1	2	-9	6	8	-13	11	4686
Cc1ccc(S(=O)(=O)CCC(=O)OCc2ccc(Cl)c(Cl)c2)cc1	-16	3	4	14	-17	7.7	1996
O=C(CSc1ccc2ccccc2c1)NCCc1ccc(O)c(O)c1	1	9	0	10	-23	3.8	3990
COC(=O)c1cc2ccsc2n1Cc1nc(-c2ccc(Cl)cc2)oc1C	17	5	-1	24	-15	-3.9	5002
O=C(COc1ccccc1)NCC(=O)NN=Cc1ccco1	·	-4	7	1	·	2.0	·
COc1ccccc1C(=O)Nc1ccc(NC(=O)c2ccco2)c(C)c1	4	5	7	4	-14	9.3	2637
CC1OC(OC2C(COC3OC(CO)C(O)C(O)C3O)OC(OC3CC[C@]4(C)C(CC[C@@]5(C)C4C=C[C@]46OC[C@@]7(CCC(C)(C)CC74)C(O)C[C@@]56C)C3(C)C)C(O)C2O)C(O)C(O)C1O (stereo partly specified)	·	-3	5	5	·	4.6	·
O=C(Cc1cccs1)N/N=C/C=C\c1ccccc1[N+](=O)[O-]	1	·	·	·	-54	·	5185
CCN(CC)c1ccc(C=NNc2nc(C)cc(=O)[nH]2)c(O)c1	·	2	-1	6	·	3.2	·
Cc1noc(C)c1COC(=O)c1cc(S(=O)(=O)N2CCOCC2)ccc1F	·	3	3	4	-16	5.1	3524
COc1cc2c(cc1OC)CN(CC(=O)Nc1ccccc1C(=O)NCc1ccccc1)CC2	-11	1	15	-5	-6	1.2	6601
COc1cc(OC)cc(-n2nc(C(=O)N3CC(C)CC(C)C3)c3ccccc3c2=O)c1 (stereo unspecified)	·	5	8	-8	-12	3.7	10165
CC(C)n1nc(CC(=O)O)c2ccccc2c1=O	-30	14	2	3	-11	-1.6	3049
Cc1cc(C(=O)N/N=C/c2ccc3c(c2)OCO3)c(C)n1-c1ccc(F)cc1	1	·	·	·	-22	·	4610
O=C(O)c1nn(Cc2ccc(Cl)cc2Cl)c2ccccc12	-14	0	-4	-24	-29	22	5572
O=[N+]([O-])c1cccc(C=NN2CCCCCC2)c1	·	9	10	6	-73	12	4137
NNc1nc2cccnc2n(CCNc2ncc(C(F)(F)F)cc2Cl)c1=O	8	6	0	4	-20	7.4	4596
CCOC(=O)C1CCN(CCC(=O)Nc2ccccc2)CC1	-3	9	3	-1	-11	-5.7	2899
O=C(COC(=O)/C=C/c1ccccc1)NCc1ccccc1Cl	8	3	6	3	-13	3.7	2704
CCOC(=O)C1CCN(C(=O)CN(c2cccc(OC)c2)S(=O)(=O)c2ccccc2)CC1	3	6	-1	-3	-13	-11	3109
Cc1nc(CN2CCOCC2)cc(=O)[nH]1	3	3	1	2	2	-0.9	4321
Going on with the list.
SMILES	BJeLR viability	Mtb hypoxia rep	Mtb hypoxia rep growth	ugtP null kill	PrP UTR inh	Sa RN4220 lethal	Bead autofluor
COc1cccc(C(=O)N/N=C2\SCC(=O)N2Cc2ccc3c(c2)OCO3)c1	2	·	·	·	-22	·	5838
O=C(Nc1ccccc1)NN(C(=O)CCl)c1ccccc1	3	18	17	7	-37	12	6168
O=C(Nc1ccc(N2CCOCC2)c(Cl)c1)c1cc(F)c(F)cc1Cl	-6	·	·	5	-24	6.5	3188
CC(C)c1ccc(C=NNc2ccc(C(=O)O)cc2)cc1	·	-1	-3	-12	·	0.4	·
Cc1cccc[n+]1CC(=O)c1ccccc1	-6	12	10	7	-9	3.0	3852
CCCNC(=O)c1c(N)n(-c2ccc3c(c2)OCO3)c2nc3ccccc3nc12	9	5	7	-14	-31	0.0	21855*
Cn1cncc1C#Cc1c(-c2ccc(S(C)(=O)=O)cc2)sc2ccccc12	·	-3	-1	-22	11	-7.5	3601
Cc1ccc(CNc2ccc3c(c2)ncn3C(C)C)cc1	10	-2	-8	2	-116	5.6	6130
COc1ccc(C=NNC(=O)c2cccc(C(=O)NN=Cc3ccc(OC)c(OC)c3)n2)cc1OC	·	-2	6	5	·	0.2	·
CCc1ccc(S(=O)(=O)NC(CC(=O)O)c2ccccc2)cc1 (stereo unspecified)	-4	4	6	5	-25	5.2	13239
Cc1ccc(C(C)NC(=S)NCc2ccc(F)cc2)c(C)c1 (stereo unspecified)	-3	1	6	-18	2	-6.7	5989
CC(=NOC(=O)c1c(-c2c(F)cccc2Cl)noc1C)c1cnccn1	·	-3	6	7	·	2.9	·
Nc1nc2c([N+](=O)[O-])cccc2s1	-6	3	7	-11	-11	0.2	3324
C=CCOc1cccc(C(=O)N2CCCC(Nc3ccc(F)cc3)C2)c1 (stereo unspecified)	13	2	12	-2	-13	0.6	5824
Cc1ccc(CNC(=O)CCC2CCCN(Cc3cc4ccccc4o3)C2)o1 (stereo unspecified)	-2	-7	3	16	-98	1.9	3529
CCOc1ccc(CCNC(=O)Cn2c(=O)c3cccn3c3cccnc32)cc1	6	4	2	4	-19	3.8	5553
COc1cc(S(=O)(=O)NC2CCCC2)ccc1F	-7	12	-2	11	-1	5.0	16811*
Cc1ccccc1NC(=O)OCc1ccccc1	-2	13	6	3	-50	2.7	3112
